High-throughput results (PubChem)
Sfp inh: Sfp phosphopantetheinyl transferase inhibition; 310,000 tested, 3.5% active; AID 1490; Q9F4F7; Biochemical Sfp PPTase activity, qHTS; Potency, µM, inactives show max response, negative = inhibition, hits mostly inhibitors; active = well fitted inhibition curve with a large enough effect; inconclusive = small, poorly fitted or top-dose-only effect, or another doubt; inactive = no such curve, though single readings can be large or run the other way;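 note: the enzyme is Sfp with the accession as filed and its product quenches rhodamine fluorescence; potency is the fitted concentration of half-maximal effect; 0% = enzyme reaction without inhibitor and -100% = no enzyme wells; top concentration of the series not given in the record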
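Fluorescence-quenching assay: 15 nM Sfp-PPTase preincubated 15 min at room temperature with compound, then 5 uM rhodamine-CoA and 12.5 uM BHQ-2-labelled YbbR peptide added. Fluorescence (ex 525/em 598 nm) read at start and after 30 min; difference gives rate.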
D2 PAM: potentiates the human D2 dopamine receptor allosterically. P14416. DiscoveRx D2 beta-arrestin cells, luminescence, 90 min; 100% = 57 uM dopamine signal. potentiation, % (test concentration not listed). 360,000 tested, 0.23% active; active = potentiation of 50% or more; inconclusive = 30% to 50%; inactive = 30% or less;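 note: compound concentration not given in the record; tested on top of an EC20 dose of dopamine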
Target sequence (P14416 whole entry, looked up): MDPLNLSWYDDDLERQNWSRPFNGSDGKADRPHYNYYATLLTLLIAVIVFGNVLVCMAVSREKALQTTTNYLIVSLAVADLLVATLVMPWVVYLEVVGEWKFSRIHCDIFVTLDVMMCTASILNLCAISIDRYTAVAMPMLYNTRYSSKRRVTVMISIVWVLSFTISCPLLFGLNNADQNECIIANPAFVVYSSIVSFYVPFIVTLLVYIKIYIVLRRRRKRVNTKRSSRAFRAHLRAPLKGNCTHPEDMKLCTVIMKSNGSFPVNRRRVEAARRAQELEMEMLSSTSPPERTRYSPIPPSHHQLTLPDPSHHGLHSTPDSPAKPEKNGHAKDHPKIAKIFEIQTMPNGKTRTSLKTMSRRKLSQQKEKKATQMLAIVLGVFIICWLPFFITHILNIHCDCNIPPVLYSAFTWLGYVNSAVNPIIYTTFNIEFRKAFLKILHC
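PathHunter D2 cells, attached overnight at 37 deg C, received compound in DMSO plus dopamine at EC20 (50 nM final) for 90 min at 37 deg C. Beta-arrestin recruitment was read as luminescence after 1 h with detection reagent at ambient temperature.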
gsp antag: antagonists of gsp mutant (McCune-Albright syndrome); gsp-mutant cells, cAMP HTRF, 30 min; control for the full effect not named in the record; Potency, µM (highest dose often 76.9 µM), inactives show at the highest dose activity change, negative = inhibition, hits mostly inhibitors; 340,000 tested, 0.4% active; active = falling curve of any shape with a large fitted effect; inconclusive = falling curve, mostly with a smaller effect; inactive = flat or rising curve; cell line not stated here;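 note: intracellular cAMP measured with PDE inhibitor Ro 20-1724 present during compound exposure; potency is the fitted concentration of half-maximal effect; % is set by controls: 0 for no effect and ±100 for the full control effect; nearly all actives have a fitted effect of over 65% in size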
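G418-selected cells were plated in DMEM/10% FBS for 16-24 h at 37C, then treated with compounds plus the PDE inhibitor […] (300 uM solution added) for 30 min at 37C. Intracellular cAMP was measured by HTRF after 30 min lysis at room temperature.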
Menin-MLL FL inh: displaces fluorescein MLL peptide from human menin | Fluorescence polarization, fluorescein-MLL peptide displacement from menin | FP activity change, % at 61.4 µM | 290,000 tested, under 10 active | AID 1766; inconclusive = falling polarisation curve, or a change in total fluorescence; inactive = total fluorescence flat and polarisation flat or rising; no compound was filed as active; the % refers to the polarisation; negative = inhibition;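 note: % of control where 0% means no effect; inhibitors lower the polarisation; unlabelled MLL peptide was the positive control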
gsp ag: activates gsp, the McCune-Albright syndrome mutation. 340,000 tested, 0.13% active. Potency, µM (titrated, usually from 76.9 µM), without a hit: at the top dose activation (cAMP increase), usual class: activators. gsp mutant cells, cAMP HTRF, 30 min; control for the full effect not named in the record. AID 624287; active = well fitted activation curve with a large enough effect; inconclusive = small, poorly fitted or top-dose-only effect, or another doubt; inactive = no such curve, though single readings can be large or run the other way; cell line not stated here;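 note: phosphodiesterase inhibitor Ro 20-1724 added with compounds to block cAMP breakdown; potency is the fitted concentration of half-maximal effect; nearly all actives have a fitted effect of over 60% in size; about a fifth of the inactives were tested at one dose only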
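Cells stably selected in G418 were plated at 2000/well, grown 16-24 hr, then given compounds in DMSO with the PDE inhibitor […] (300 uM solution added) for 30 min at 37C; cAMP was read by HTRF.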
ClpP mod: qHTS Assay for Activators of ClpP. ATP-dependent Clp protease proteolytic subunit (Bacillus subtilis (strain 168)), P80244. purified B. subtilis ClpP, FRET peptide cleavage, 20 min. Potency, µM (titrated, usually from 57.5 µM), inactives show at the top dose activity change, negative = active. 340,000 tested, 1.9% active. AID 651965, 2013; active = well fitted falling curve with a large enough effect; inconclusive = small, poorly fitted or top-dose-only effect; inactive = no such curve, though single readings can be large or run the other way; note: potency is the fitted concentration of half-maximal effect; the source files actives as falling curves though it sought activators and does not explain the sign; nearly all actives have a fitted effect of over 65% in size; many hits overshoot -100%
Target sequence (P80244 whole entry, looked up): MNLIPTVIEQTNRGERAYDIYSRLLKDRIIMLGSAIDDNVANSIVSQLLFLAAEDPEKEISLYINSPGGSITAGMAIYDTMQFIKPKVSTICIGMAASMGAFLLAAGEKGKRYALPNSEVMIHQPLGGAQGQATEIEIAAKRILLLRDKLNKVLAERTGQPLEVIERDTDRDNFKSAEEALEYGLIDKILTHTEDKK
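FRET quenching reversal measured ClpP activation: 10 microg/mL B. subtilis ClpP at pH 8 with the FRET-FV decapeptide, read at 430 nm after 320 nm excitation. The 20-min minus 0-min signal was scaled between DMSO/no-enzyme wells and ADEP (5.8 microM final).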
TRPV1 potentiator: enhances activation of the human vanilloid receptor TRPV1; AID 540277; TRPV1-expressing cells, Fluo-8 calcium influx, capsaicin EC20 potentiation; host cell line not named in the record; control for the full effect not named in the record; potentiation, % at 8.33 µM; 320,000 tested, 0.02% active; active means potentiation above 80%; inconclusive means 30% to 80%; inactive means below 30%; note: 0% is about no effect
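Cells expressing TRPV1 were dye-loaded with Fluo-8 and read kinetically: 10 s baseline, 3 min after compound (agonist portion), then 2 min after EC20 capsaicin (allosteric enhancer portion). Calcium-bound dye fluorescence at 480/520 nm.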
Starred values were filed as active, the others as inactive; ? = inconclusive; . = not tested or not shown; & = joins results of further samples; [ ] = another dose, or the depositor's remark.

smiles | Sfp inh | D2 PAM | gsp antag | Menin-MLL FL inh | gsp ag | ClpP mod | TRPV1 potentiator
N[C@@H](Cc1ccc(O)cc1)c1nnc([C@H](CO)NC(=O)C2CCNCC2)o1 | 0% | -6 | 11% | 3.0 | 22% | -2.6% | 21
Cc1cc(C(=O)N/N=C/c2ccc[nH]2)no1 | 0% | -14 | 2% | 7.0 | 15% | -3.8% | -4
COc1ccc(CN2CCc3c([nH]c4ccccc34)C2)cc1Br | ? | -55 | 0% | 0.7 | ? | -4.5% | 2
COC(=O)c1ccc(NC(=O)Nc2ccc(OC)cc2)cc1 | -15% | -10 | -3% | 0.6 | 24% | . | -1
Brc1ccc2[nH]c3c(N4CCc5ccccc5C4)ncnc3c2c1 | 17% | -1 | -20% | -1.8 | 11% | 32µM* | 24
O=C(Nc1ccc2ncccc2c1)c1ccccc1Cl | 12% | -5 | 6% | -1.3 | 3% | 0.1% | -9
COc1ccccc1-c1cc(C(=O)N/N=C/c2sccc2C)c2ccccc2n1 | 11% | -10 | ? | 2.8 | -24% | -11% | -7
CCOC(=O)C1=C(CSc2nccn2C)NC(=O)NC1c1ccc(OC)cc1 (stereo not given) | -2% | 2 | 11% | -0.9 | -20% | -0.1% | -15
O=C(COc1ccccc1)OCC(=O)c1c[nH]c2ccccc12 | . | 17 | 5% | . | 5% | -1.4% | -11
CCCc1c(C(=O)N/N=C(\C)c2ccc(O)cc2)nnn1-c1nonc1N | 21% | -26 | 6% | -7.7 | 17% | 3.7% | -13
O=C(Nc1cccnc1)c1cc([N+](=O)[O-])ccc1Cl | 23% | -15 | -12% | -1.9 | 1% | 1.1% | 1
COc1cccc(OC)c1C1=NC(C)(C)CO1 | -1% | -3 | 14% | 0.4 | 3%[15.4 µM] | -0.9% | -10
Cc1csc2ncnc(NC3CCN(Cc4ccccc4)CC3)c12 | 3% | -2 | -4% | -4.0 | ? | . | -6
CCCN(CCC)C(=O)c1cc2c(=O)[nH]c3ccc(C)cc3c2s1 | 14% | -6 | -26% | -3.8 | 8% | 3.2% | -4
O=C(CN1CCN(C(c2ccccc2)c2ccccc2)CC1)Nc1ccc(N2CCOCC2)cc1 | 1% | -7 | 8% | -2.0 | 1% | 1.8% | -14
CCC1(C)Cc2ccccc2-c2nc(NCCO)n(-c3ccccc3)c(=O)c21 (stereo not given) | -15% | -5 | 0% | 1.7 | 4% | 71% | -12
Cc1sc2nc(-c3cccnc3)nc(Cl)c2c1-c1ccccc1 | ? | -1 | -11% | 23 | ? | ? | 7
CC(Oc1ccc2c(c1)oc(=O)c1ccccc12)C(=O)NCCN1CCOCC1 (stereo not given) | 1% | -26 | -3% | -4.6 | ? | 3.7% | -2
COc1ccc2nc(NC(=O)CSc3nnc4n3C(C)(C)Cc3ccccc3-4)sc2c1 | 18% | 1 | -3% | -1.4 | 2% | 1.0% | 2
Cc1ccc(C(=O)OCC(=O)NCc2cc(C)c(O)c(C)c2)cc1S(=O)(=O)N1CCCCC1 | . | 1 | ? | . | -44%[inhibitor] | 1.4% | 8
CC(Sc1nnc(C2CC2)n1-c1ccccc1)C(=O)N1CCNC1=O (stereo not given) | . | 3 | 14% | . | -9%[15.4 µM] | . | -2
CCOC(=O)c1sc2nc(CC(=O)OC)nc(NCCN(CC)CC)c2c1C | 4% | -28 | 4% | -0.9 | -2% | -30% | -6
CCC(C)NC(=O)Cn1cnc2sc(C)c(S(=O)(=O)N3CCN(c4ncccn4)CC3)c2c1=O (stereo not given) | 9% | -2 | -5% | -2.4 | 22% | . | 10
CC1=CC(=O)c2ccccc2C1=O | ? | 22&5 | -2%&3% | 0.4 | . | -0.9%&-1.7% | 7&7
COc1ccc(C2Nc3ccccc3C(=O)N2c2ccccc2)cc1CSc1ccccn1 (stereo not given) | 11% | -14 | -16% | 2.6 | 29% | 32µM* | 5
COc1cccc(NC(=S)N(Cc2ccco2)C(C)c2ccco2)c1 (stereo not given) | 0% | -8 | -7% | 6.7 | -55%[inhibitor] | -21% | 3
Cc1cccc(C(=O)Nc2ccccc2C(=O)Nc2ccc(C(=O)O)cc2)c1 | 20% | -5 | -17% | 0.1 | 25% | . | 11
COc1ccc(-c2noc(CSc3nc4sc(C)c(C)c4c(=O)n3-c3ccccc3)n2)cc1 | 4µM* | 11 | 13% | 5.1 | -2% | -4.4% | 2
CCN(CC)CCCn1c2c(c(SCC(=O)Nc3ccc4c(c3)OCCO4)nc1=O)CCC2 | . | -15 | 9% | . | 6%[15.4 µM] | 0.7% | 6
Cc1ccc(C2=NS(=O)(=O)N(C)C(C(=O)NCc3cccs3)=C2)cc1 | 4% | -9 | -7% | -5.0 | -19% | -2.7% | 7

Four entries from above, arranged by their value in gsp antag, high to low:
canonical_smiles | gsp antag
COc1cccc(OC)c1C1=NC(C)(C)CO1 | 14%
N[C@@H](Cc1ccc(O)cc1)c1nnc([C@H](CO)NC(=O)C2CCNCC2)o1 | 11%
O=C(Nc1ccc2ncccc2c1)c1ccccc1Cl | 6%
Cc1cc(C(=O)N/N=C/c2ccc[nH]2)no1 | 2%

Further structures follow.
smiles | Sfp inh | D2 PAM | gsp antag | Menin-MLL FL inh | gsp ag | ClpP mod | TRPV1 potentiator
O=C(CCC(=O)Nc1ccc(Br)cc1)N/N=C/c1ccc(F)cc1 | 8% | -12 | 5% | 8.8 | -4% | 1.3% | -5
O=C(COC(=O)[C@@H]1CCCN1S(=O)(=O)c1ccc(Cl)cc1)NC1CC1 | 24% | -2 | 1% | . | -11% | 0.3% | 5
CC(=O)c1ccc(S(=O)(=O)N2CCN(C(C)C(=O)N(C)Cc3ccccc3)CC2)cc1 (stereo not given) | . | -5 | 0% | . | 21% | -1.3% | .
COCc1ccc(CN2CCCC(CCC(=O)NCc3ccc(C)o3)C2)o1 (stereo not given) | 4% | -15 | 10% | -2.3 | -30% | 0.3% | 6
Clc1ccc(OCc2nn3c(-c4ccco4)nnc3s2)c(Cl)c1 | 18µM* | -6 | 7% | 3.7 | 20% | 1.4% | 2
COc1ccc2ccccc2c1/C=N/N1C(=O)CSC1=S | ? | 1 | -15% | ? | -5%[15.4 µM] | . | 1
Cc1ccc2cccc(OCc3cccc([N+](=O)[O-])c3)c2n1 | 10% | 5 | -11% | 0.8 | -9% | . | ?
N#CC1(c2ccccc2)CCC(=O)N1Cc1ccccc1 (stereo not given) | 14% | -3 | 4% | -2.0 | 23%[15.4 µM] | . | -3
O=C(CN(CCc1ccccc1)C(=O)CN1C(=O)COc2ccccc21)NCc1ccco1 | -12% | -24 | -5% | 4.4 | 7% | -2.4% | -6
O=C(COc1ccc(F)cc1)N1CCCc2ccccc21 | 6% | -9 | 4% | 6.4 | -10% | 0.4% | -3
O=C(Nc1ccc(Cl)cc1)c1nc[nH]c1C(=O)N1CCN(c2ccccc2)CC1 | . | -59 | -1% | . | . | 61% | .
O=S(=O)(/N=C(/Nc1nc2ccccc2s1)c1ccccc1)c1ccccc1 | . | 3 | -13% | . | ? | 0.3% | -17
O=c1[nH]c2ccccc2n2c(-c3ccncc3)nnc12 | 6% | 1 | 1% | -0.2 | ? | -14% | 19
CCN(CC)CCCN(Cc1cc2cc(OC)ccc2[nH]c1=O)C(=O)Nc1ccc(F)cc1 | 2% | -22 | -7% | -0.5 | -2% | 28µM* | 24
CCCCNC(=S)N/N=C/c1sccc1C | 8% | -8 | -14% | -0.4 | -16%[15.4 µM] | 0.8% | 7
CCOc1ccc(CCNC(=O)CSc2cc(=O)n(CC)c3ccccc23)cc1OCC | 27% | -7 | -11% | -1.6 | -7%[15.4 µM] | 32µM* | -1
Cc1nnc(NC(=O)CN2CCN(Cc3ccc(F)cc3Cl)CC2)s1 | 25% | -4 | 1% | 0.4 | -9% | 1.2% | -3
Cc1ccc(CNC(=O)c2c(-c3ccccc3)sc3ccccc23)o1 | . | -4 | -27% | . | . | -7.7% | .
N#Cc1nc(Cc2cccc3ccccc23)oc1NCc1ccc(F)cc1 | 22% | -5 | -12% | 6.9 | 2% | -1.6% | ?
CCN(CC)CC(=O)Nc1sc2c(c1C(=O)c1ccccc1OC)CCC2 | -6% | 2 | -16% | -1.0 | -10%[15.4 µM] | ? | 20
COc1ccc(Cc2nnc(NC(=O)c3ccc(F)cc3)s2)cc1OC | 15% | 8 | -1% | -0.4 | 19% | -1.5% | 25
Cc1cccc(Sc2ccc([N+](=O)[O-])cn2)c1 | 17% | 5 | 13% | 3.5 | 7%[15.4 µM] | . | 7
Cc1occc1-c1nnc(SCC(=O)N(C)C)o1 | 2% | -2 | -3% | 4.3 | -2% | -0.2% | 3
CCOC(=O)C1(CCOc2ccccc2)CCN(Cc2ccncc2)CC1 | 45µM* | -3 | 5% | 5.4 | -23%[15.4 µM] | . | 2
Cc1ccc(NC(=O)Cn2nnc(C(=O)NCc3cccs3)c2N)c(C)c1 | -7% | -12 | 12% | 0.2 | 6% | 0.1% | -1
Cc1ccc(C)c(Cn2nnc3c(=O)[nH]c(C4CCN(S(=O)(=O)c5ccc(S(=O)(=O)NC6CC6)cc5)CC4)nc32)c1 | -8% | -3 | -16% | 6.6 | -13%[15.4 µM] | . | -23
COc1ccccc1N1CCN(CC(=O)NCCc2ccc(S(N)(=O)=O)cc2)CC1 | 19% | -14 | 17% | 2.2 | 7%[15.4 µM] | . | 8
COc1ccc(-c2csc(Nc3ncccn3)n2)cc1C | 2% | -5 | 4% | 0.2 | 2% | -1.9% | 0
COc1ccc(C2CC(c3ccccc3)=NN2C(=O)COC(=O)c2cccc(N)c2)cc1 (stereo not given) | . | -7 | -16% | . | 19% | ? | .
O=C(Cc1ccc(Br)cc1)N1CCN(C(=O)c2ccccc2)CC1 | . | 0 | 13% | . | ? | -0.9% | 27
